CDC25B CDK2 inh: human CDC25B-CDK2/CyclinA binding inhibition | P30305+P24941 | HTRF CDC25B-CDK2/CyclinA binding, anti-His/anti-Flag; hits give high values | z-score (concentration not given with the values) | 94,000 compounds, 0.72% hits;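 note: score is relative to mean and SD of negative controls; strong numbers were not always called active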
TAR Tat displ: HIV-1 TAR-Tat binding disruption; HIV-1 TAR RNA, Tat peptide displacement FRET; hits give high values; 100,000 compounds, 0.6% hits; AID 1259389; z-score (no concentration beside the values);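 note: score is relative to mean and SD of negative controls; some compounds called inactive have numbers as strong as hits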
Starred values were filed as active, the others as inactive; / = not tested or not shown.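 Rule for the calls: active = z-score from 3 up in half or more of its runs; inactive = the rest.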

SMILES	CDC25B CDK2 inh	TAR Tat displ
O=c1s[nH]c2ccccc12	-0.93	/
COc1ccc(S(=O)(=O)c2cnc3sccn3c2=O)cc1	-0.52	1.34
CCc1ccc2oc(C(=O)Nc3nnc(CC)s3)cc(=O)c2c1	0.04	1.77
OC(CN1CCCCC1)c1ccc2cc[nH]c2c1 (configuration not stated)	0.7	/
CSc1ccccc1NC(=O)Cn1c(=O)sc2ccccc21	-0.95	1.02
Cc1ccc(-n2c(C)c(C)c3c2ncn2nc(-c4ccccc4O)nc32)c(C)c1	-0.21	1.15
COc1cc2c(cc1OC)CN([C@H]1CS(=O)(=O)C[C@@H]1S(=O)(=O)c1ccccc1)CC2	-1.08	-1.13
Cn1c(=O)c2c(c3ccccc31)OC(=O)CC2c1c(F)cccc1Cl (configuration not stated)	-1.94	-1.69
O=c1c(Cc2ccccc2)coc2ccccc12	-1.11	/
CCCCC(=O)N(c1ccc2oc(=O)sc2c1)S(=O)(=O)c1ccc(F)cc1	-0.42	-0.02
CCc1nn(CC(=O)NCc2ccco2)c(=O)c2cc3ccccc3n12	-0.1	0.33
CCOc1ccc(C2Nc3ccccc3S(=O)(=O)N2Cc2ccccc2)cc1OC (configuration not stated)	-0.03	/
O=C(OCC1CCCO1)c1ccc2c(c1)N(Cc1ccccc1)C(=O)c1ccccc1S2 (configuration not stated)	/	0.84
CCc1nnc(NC(=O)CSc2nc(C)cc(C)n2)s1	2.06	-0.71
CN(C1CC2C=CC1C2)S(=O)(=O)c1cc(C(F)(F)F)cc(C(F)(F)F)c1 (configuration not stated)	-2.9	/
CN1N=C(SCc2ccc(Cl)cc2Cl)Sc2c1cnn(C)c2=O	-1.67	/
COC(=O)c1ccc(C2Oc3ccccc3C3=C2C(c2ccccc2F)n2ncnc2N3)cc1 (configuration not stated)	-2.62	/
Cc1nn(-c2ccc(Br)cc2)cc1-c1noc(C(=O)NCCC2=CCCCC2)n1	/	0.96
COc1ccc(CNc2ccc(Cl)nn2)cc1	-1.38	0.08
Cn1c(C(=O)N2CCOCC2)cc2sccc21	-0.98	-0.1
COc1ccc(-n2cc(-c3ccccc3)c3c(N(C)C)ncnc32)cc1	-1.69	0.49
COCCOC(=O)C1=C(C)NC2=C(C(=O)CCC2)C1c1ccc(C)cc1 (configuration not stated)	-0.02	0.7
CCOc1cc2c(C(=O)OC)c(C)oc2cc1Br	-3.41	1.87
COc1ccc(Nc2cc(C)nc3c(C)c(C)ccc23)cc1OC	-1.14	/
CCOC(=O)COc1ccc2c(c1)C(=O)CC1(CCCCC1)O2	/	1.84
CCn1cc(-c2nc(-c3ccc(Br)cc3)no2)c(=O)c2ccc(C)nc21	-0.48	1.74
Cc1ccccc1-n1c(SCc2cc(=O)n3ccccc3n2)nnc1-c1cc2occc2n1C	/	0.75
CCCCc1ccc(-c2nc3ccccc3c(=O)o2)cc1	-1.27	1.68
CC1(C(=O)NC2CCCCC2)Cn2c(cc3sccc32)C(=O)N1C1CCCC1 (configuration not stated)	-0.18	1.37
CN(C)CCC(c1ccc(Br)cc1)c1ccccn1 (configuration not stated)	-1.27	0.47
CCOc1cc(-c2ccc(C)cc2)nc2ccc(C(=O)O)cc12	-0.68	-0.18
Cc1cc(=O)nc2c3ccccc3n(C(C)C(=O)NC3CCCCC3C)n12 (configuration not stated)	-1.03	-2.08
COc1ccc(S(=O)(=O)N2CCSC2c2ccccc2)cc1 (configuration not stated)	-0.5	2.49
COC(=O)C1=C(C)NC2=C(C(=O)c3ccccc32)C1c1ccc(OCC(=O)O)cc1 (configuration not stated)	-2.79	-0.66
O=C(CSc1ncnc2c1sc1cccc(F)c12)N1CCN(C2CCCCC2)CC1	/	-3.86
CN1CCN(c2nc3c(c(=O)n(C)c(=O)n3C)n2Cc2cccc(Br)c2)CC1	0.31	/
CCCNC(=O)CN1C(=O)NC2NC(=O)NC21 (configuration not stated)	-2.91	0.55
CC(C)NC(=O)CSc1ncnc2c1sc1cccc(F)c12	/	-0.52
O=C1Nc2ccccc2C1Cc1ccsc1 (configuration not stated)	-2.42	-0.72
COc1ccc(C(=O)c2cn(Cc3ccccc3F)c3cc4c(cc3c2=O)OCCO4)cc1	1.56	1.14
O=C(Cn1c(=O)oc2cc(S(=O)(=O)N3CCCCC3)ccc21)NC1CCCCCC1	-0.71	/
CCC(C(=O)N1CCCCCC1)n1nc(C)n2c(cc3sccc32)c1=O (configuration not stated)	0.15	/
COc1ccc(OC)c(NC(=O)CSc2nc3ccccc3c3nc4ccccc4n23)c1	/	1.5
CC(C)(C)S(=O)(=O)/C(C#N)=C/N/N=C/c1ccsc1	-1.84	/
O=c1nc(/C=C/c2ccc(-c3ccc(Cl)c([N+](=O)[O-])c3)o2)cc(C(F)(F)F)[nH]1	-4.19	/
CCOC(=O)c1c(C)[nH]c(C)c1S(=O)(=O)NCC(=O)NC1CCCCC1	/	1
CC(=O)CSc1nc(SCC(C)=O)c2cnc(N3CCCC3)nc2n1	-2.23	/
Cc1ccccc1CN1C(c2ccc(Br)cc2)Nc2ccccc2S1(=O)=O (configuration not stated)	/	1.85
O=C(C1CCN(c2ccc(-c3cccs3)nn2)CC1)N1CCN(c2ccccc2F)CC1	/	1.4
CC1CC(=O)Nc2cc(S(=O)(=O)N3CCN(Cc4ccc5c(c4)OCO5)CC3)ccc2S1 (configuration not stated)	/	-0.01
CC1CCCC(NC(=O)C2(C)Cn3c(cc4occc43)C(=O)N2CC2CCCO2)C1C (configuration not stated)	/	6.77*
O=C(Nc1cccc(Cl)c1)N1CCC2(CC1)Nc1ccccc1-n1cccc12	/	0.34
Cc1ccc(CNS(=O)(=O)c2cc(Br)cc3c2N(C(=O)C2CC2)CC3)cc1	1.03	/
CN(Cc1ccco1)S(=O)(=O)c1cc(F)ccc1CN1C(=O)c2cccnc2C1=O	/	-1.17
Fc1c(F)c(C(F)(F)F)c(F)c(F)c1N/N=C/c1cn(Cc2ccccc2)c2ccccc12	-0.58	/
Cc1ccc(S(=O)(=O)c2nnn3c2nc(N2CCCC2)c2ccccc23)cc1	-2.53	-0.52
COC(=O)c1sc2ccccc2c1C(=O)OC	/	3.19
COc1ccc(C2C3=C(Nc4ncnn42)c2ccccc2OC3c2cccs2)cc1 (configuration not stated)	-2.63	/
CCCc1nc2nc(C)c(NS(=O)(=O)c3ccc(C)c(C)c3)c(=O)n2[nH]1	0.68	1.33
CCN(CC)S(=O)(=O)c1cc2c(cc1Cl)NC(=O)CO2	/	-1.55

Next section; it opens with the three that closed the last part.
SMILES	CDC25B CDK2 inh	TAR Tat displ
COc1ccc(C2C3=C(Nc4ncnn42)c2ccccc2OC3c2cccs2)cc1 (configuration not stated)	-2.63	/
CCCc1nc2nc(C)c(NS(=O)(=O)c3ccc(C)c(C)c3)c(=O)n2[nH]1	0.68	1.33
CCN(CC)S(=O)(=O)c1cc2c(cc1Cl)NC(=O)CO2	/	-1.55
CC(C)CCNc1nc2c(c(=O)[nH]c(=O)n2C)n1CC(O)COC(C)C (configuration not stated)	-1.94	0.18
O=C(O)CN(CC(O)Cn1c2ccccc2c2ccccc21)S(=O)(=O)c1ccccc1 (configuration not stated)	-1.02	-1.37
Cc1cc(-c2ccc(=O)[nH]n2)cc(S(=O)(=O)N2CCCCC2C)c1C (configuration not stated)	/	1.77
CCn1c(SCC(=O)Nc2ccc(F)cc2)nc2c(c1=O)SCC2	-2.79	3.09
CC1=NS(=O)(=O)c2cc(S(=O)(=O)Nc3cc(Cl)ccc3C)ccc2N1	/	-4.04
Cc1cc(Br)ccc1Nc1ncnc2c1nc1n2CCCCC1	/	0.3
C=CCSc1ncc(Cl)c(C(=O)Nc2ccc(S(=O)(=O)N3CCOCC3)cc2)n1	-1.34	1.2
CCCOc1ccc(C2C(C#N)=C(N)Oc3n[nH]c(CCC)c32)cc1 (configuration not stated)	5.96	0.36
Cc1cc2c(cc3c(=O)n(CC(=O)N4CC(C)CC(C)C4)ncn32)s1 (configuration not stated)	0.26	1.88
COc1ccc(OC)c2[nH]c(=O)c(CCNC(C)=O)cc12	-2.04	/
O=C(c1cc2n(n1)C(C(F)(F)F)CC(c1ccc3c(c1)OCO3)N2)N1CCN(c2ccccc2)CC1 (configuration not stated)	/	0.36
OC[C@H]1O[C@H](O)C[C@@H](O)[C@@H]1O	/	0.95
CCCCOc1ccc(N2CC(C(=O)OC)CC2=O)cc1 (configuration not stated)	-0.08	/
Cc1[nH]c2ccccc2c1C(O)c1ccccn1 (configuration not stated)	-1.54	0.2
Cc1cc(C)c2c(-n3cccc3)c(C(=O)NC(C)C)sc2n1	-1.32	-0.35

Entries of single compounds, looked up by structure. Values in the order: CDC25B CDK2 inh, TAR Tat displ
Cc1ccc(CNS(=O)(=O)c2cc(Br)cc3c2N(C(=O)C2CC2)CC3)cc1 is entered as 1.03, /
CCC(C(=O)N1CCCCCC1)n1nc(C)n2c(cc3sccc32)c1=O (configuration not stated) is entered as 0.15, /
Cn1c(C(=O)N2CCOCC2)cc2sccc21 is entered as -0.98, -0.1
OC[C@H]1O[C@H](O)C[C@@H](O)[C@@H]1O is entered as /, 0.95
COC(=O)C1=C(C)NC2=C(C(=O)c3ccccc32)C1c1ccc(OCC(=O)O)cc1 (configuration not stated) is entered as -2.79, -0.66

Three entries from above, as labelled records.
SMILES: OC[C@H]1O[C@H](O)C[C@@H](O)[C@@H]1O
  CDC25B CDK2 inh: /; TAR Tat displ: 0.95
SMILES: CCCCOc1ccc(N2CC(C(=O)OC)CC2=O)cc1 (configuration not stated)
  CDC25B CDK2 inh: -0.08; TAR Tat displ: /
SMILES: Cc1[nH]c2ccccc2c1C(O)c1ccccn1 (configuration not stated)
  CDC25B CDK2 inh: -1.54; TAR Tat displ: 0.2

(list continues)
SMILES	CDC25B CDK2 inh	TAR Tat displ
COc1ccc(Br)cc1C1Nc2ccc(C(=O)O)cc2C2C3CCC(C3)C12 (configuration not stated)	1.54	2.27
Cc1ccc2c(c1)Cc1c([nH]c(-c3ccc(C(=O)O)cc3)nc1=S)O2	0.49	0.99
CN(C)/C=C/C(=S)c1cccs1	-0.42	/
CCOC(=O)c1sc2nc3n(c(=O)c2c1C)CCC3	-0.9	1.69
COc1ccccc1-n1nnc(S(=O)(=O)c2ccccc2)c1C	-0.17	0.37
Cc1cccc(NC(=O)C2CCCN(S(=O)(=O)c3ccc4c(c3)C(C)(C)C(=O)N4C)C2)n1 (configuration not stated)	-1.03	1.08
Cc1nc2sccn2c(=O)c1S(=O)(=O)Nc1cccc(Cl)c1C	0.38	0.63
CC1CCN(C(=O)CN2C(=O)COc3ccc(S(=O)(=O)N4CCOCC4)cc32)CC1	/	-1.15
COc1ccc(Nc2nc(NC3CCCCC3)nc3c2cnn3C)cc1	/	0.19
CCCC1c2cccn2CCN1C(=O)Nc1ccccc1F (configuration not stated)	/	-1.15
CCOc1ccc(/C(O)=C2\C(=O)C(=O)N(c3nnc(C)s3)C2c2ccc(OC)c(OC)c2)cc1 (configuration not stated)	-2.18	-1.18
Cc1c(C(=O)Nc2ccc3c(c2)OCCO3)sc2nc3n(c(=O)c12)CCCCC3	/	-0.11
Cc1nc2c(s1)CCc1oc(C(=O)NCCc3ccco3)c(C)c1-2	/	0.72
CCCCc1nn2c(=O)cc(COC(=O)c3ccc4c(c3)OCO4)nc2s1	/	-0.37
N#Cc1c(-c2ccc(Cl)cc2)nc2n(c1=O)CCS2	0.02	2.07
Cc1nn(-c2ccccc2)c2c1N(CC(=O)NCC1CCCO1)C(=O)CS2 (configuration not stated)	/	-0.93
O=C(Cn1ncn2nc(-c3ccccc3)cc2c1=O)N1CCCC1	/	-0.66
CCOC(=O)c1sc(NC(=O)c2cc(=O)c3ccccc3o2)c(C(=O)OCC)c1C	1.09	/
Cc1cn2c(=O)cc(CSCc3ccco3)nc2s1	-1.68	3.61
Cc1noc2ncnc(N3CCCC(C(=O)Nc4ccc(N5CCC(C)CC5)cc4)C3)c12 (configuration not stated)	/	-0.93
Cc1c(NC(=O)C(C)N2C(=O)C3CCCCC3C2=O)c(=O)n(-c2ccccc2)n1C (configuration not stated)	-1.14	/
CCc1cc2c3c([nH]c2cc1S(=O)(=O)NC1CCCCC1)CCCC3=O	/	1.1
CCc1ccc(C(C)(O)C(CN2CCOCC2)c2ccccc2)cc1 (configuration not stated)	1.09	2.21
COc1ccc(C(=O)CSc2nc(N)cc(=O)[nH]2)cc1C	-2.34	-1.38
N#Cc1c(N)c2ccccn2c1C(=O)c1ccc(Br)cc1	-0.43	-0.01
O=C(COc1cc(O)c2c(=O)cc(-c3ccccc3)oc2c1)c1ccc(F)cc1	0.91	/
CC(=O)N1c2ccc(S(=O)(=O)NCC3CCC(C(=O)NCc4cccs4)CC3)cc2CC1C (configuration not stated)	/	0.79
CN(C)c1ccc(C(O)C(=O)c2cccs2)cc1 (configuration not stated)	0.08	0.09
C=C(C)Cn1c(C2CC(=O)N(c3ccccc3C)C2)nc2ccccc21 (configuration not stated)	-0.77	0.49
COC(=O)c1c(NC(=O)Nc2ccc(Cl)cc2)sc(C)c1C	-2.63	-1.2
C=Cc1c(S(C)(=O)=O)sc(C(=O)Oc2ccccc2)c1C	-1.22	/
O=C(CN1c2ccccc2NC2=C(C(=O)CCC2)C1c1ccco1)NCC1CCCO1 (configuration not stated)	/	1.53

Assay outcomes as filed in PubChem BioAssay.
